Compound activity deposited in PubChem by Johns Hopkins Ion Channel Center.
KCNQ2 inh: KCNQ2 potassium channel inhibitors, primary screen, cell-based, CHO-K1, FluxOR thallium flux, B-score (AID 2156); O88943; 20 min; active compounds read low; only compounds with negative scores are shown here; some inactives read as strong as hits; B-score at 10 µM; 310,000 tested, 1.1% active;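 active = fluorescence ratio B-score at most minus 3 library SDs, with starting brightness B-score within 2 library SDs, cut at about -5.5 in these data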
Target sequence (O88943 whole entry, looked up): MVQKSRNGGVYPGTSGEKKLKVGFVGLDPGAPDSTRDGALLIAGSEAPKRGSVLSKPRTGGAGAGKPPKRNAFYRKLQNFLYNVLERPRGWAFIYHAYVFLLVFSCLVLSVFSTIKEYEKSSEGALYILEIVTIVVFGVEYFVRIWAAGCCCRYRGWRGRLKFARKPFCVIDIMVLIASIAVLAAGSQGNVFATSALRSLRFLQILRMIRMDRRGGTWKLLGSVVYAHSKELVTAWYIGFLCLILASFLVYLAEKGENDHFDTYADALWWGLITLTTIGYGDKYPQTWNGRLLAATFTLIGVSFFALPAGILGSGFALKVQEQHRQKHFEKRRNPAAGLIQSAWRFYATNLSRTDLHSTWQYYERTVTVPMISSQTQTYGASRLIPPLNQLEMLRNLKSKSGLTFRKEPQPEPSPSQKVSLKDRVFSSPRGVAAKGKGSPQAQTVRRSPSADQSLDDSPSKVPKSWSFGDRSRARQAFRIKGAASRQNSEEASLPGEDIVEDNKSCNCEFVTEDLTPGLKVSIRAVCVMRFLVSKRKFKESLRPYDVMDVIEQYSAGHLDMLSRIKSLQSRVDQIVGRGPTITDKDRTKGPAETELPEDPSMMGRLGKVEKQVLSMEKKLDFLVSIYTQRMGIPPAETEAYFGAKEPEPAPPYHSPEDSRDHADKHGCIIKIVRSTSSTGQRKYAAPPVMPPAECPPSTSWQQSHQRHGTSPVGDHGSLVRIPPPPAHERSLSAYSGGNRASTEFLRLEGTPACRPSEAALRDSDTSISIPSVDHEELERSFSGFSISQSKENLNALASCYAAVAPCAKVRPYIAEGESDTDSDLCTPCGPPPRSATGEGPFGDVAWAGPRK
KCNQ2 inh baseline: also measured in KCNQ2 inh; calls as there; B-score; measured here: initial fluorescence intensity artifact check;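 brightness before thallium and not channel activity; 0 = typical well and far values either way flag optical interference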
* marks the source's active call; other numbers are inactive results; i = inactive. A portion of the library; count on the stated rates, not on these rows.

Values in the order – KCNQ2 inh	KCNQ2 inh baseline
> O=C(Nc1ccc(Cl)cn1)C1CCN(S(=O)(=O)c2cccs2)CC1
→ i	-0.03
> COc1ccc(CC(=O)Nc2cccc(-c3nnc(-c4ccc(C)cc4)o3)c2)cc1OC
→ i	0.59
> O=C(CSCc1ccc(Br)cc1)Nc1ccc(S(=O)(=O)N2CCCCCC2)cc1
→ i	-2.9
> O=C(Cn1nc(-c2ccco2)ccc1=O)Nc1cc(Cl)ccc1Cl
→ i	0.07
> FC(F)(F)C(Oc1nc(NC2CCCCC2)nc(N2CCOCC2)n1)C(F)(F)F
→ i	-0.18
> CCCCNC(C(=O)Nc1ccc([N+](=O)[O-])cc1Br)c1ccccc1 (stereo not given)
→ i	0.27
> Cc1ccc(C)c(N2CC(C(=O)OCC(=O)Nc3cc(C)on3)CC2=O)c1 (stereo not given)
→ i	0.89
> COc1ccc(CCN2C(=NC(=O)CCC(=O)O)SC3CS(=O)(=O)CC32)cc1 (stereo not given)
→ i	-0.23
> O=C(N/C(=C\c1ccco1)C(=O)N1CCCC(CO)C1)c1ccccc1 (stereo not given)
→ i	1.9
> C=CCNC(=S)N/N=C(\C)c1ccccn1
→ i	0.49

Structural class: the compounds so far with a furan ring, fused or not.
Values in the order – KCNQ2 inh	KCNQ2 inh baseline
> O=C(Cn1nc(-c2ccco2)ccc1=O)Nc1cc(Cl)ccc1Cl
→ i	0.07
> O=C(N/C(=C\c1ccco1)C(=O)N1CCCC(CO)C1)c1ccccc1 (stereo not given)
→ i	1.9

Continuation:
Values in the order – KCNQ2 inh	KCNQ2 inh baseline
> O=C(COC(=O)c1cccc(NS(=O)(=O)c2ccc(F)c(F)c2)c1)NC(=O)NC1CCCC1
→ i	-0.01
> CCOC(=O)c1sc2nc(CN3CCCCC3)nc(Cl)c2c1C
→ i	0.92
> Cc1ccc(C(=O)c2ccccc2C(=O)OCC(=O)Nc2cccc([N+](=O)[O-])c2)cc1
→ i	1.7
> Cc1ccc(S(=O)(=O)Nc2ccc3nc(-c4cccn4C)[nH]c3c2)cc1
→ i	-3.1
> O=C(O)c1ccc(OCCn2ccnc2)cc1
→ i	1.5
> Cc1c(C)c2ccc(OC(C)C(=O)N3C[C@H]4C[C@@H](C3)c3cccc(=O)n3C4)c(C)c2oc1=O (stereo not given in full)
→ i	-2.1
> Cc1cccc(NC(=O)c2ccccn2)c1C
→ i	0.55
> Cc1ccccc1Sc1c(C#N)c(-c2ccccc2)nn1C
→ -10*	-2.6*
> Cc1sc2nc(SCC(=O)N(C)Cc3ccccc3)n(-c3ccccc3)c(=O)c2c1C
→ i	-1.2
> COc1cc2c(cc1OC)CN(C1CCCN(Cc3cc(Cl)ccc3O)C1)CC2 (stereo not given)
→ i	0.53
> Cc1sc2nc(SCC(=O)N(CCO)CCO)nc(N)c2c1C
→ i	-1
> COc1ccc2c(c1)c(=O)oc1cc(OCC(=O)NC3CCCCC3)ccc12
→ i	-0.88
> CCCN1CCN(CCCNC(=O)C2CCN(c3nnc(-n4cccc4)s3)CC2)CC1
→ i	-0.28
> Cc1cc(C)c2c(n1)sc1c(=O)[nH]c(SCc3ccccc3)nc12
→ i	-0.79
> CSc1nnc(Cc2sc(-c3ccccc3)nc2-c2ccccc2)o1
→ i	-0.65
> Cc1ccc(-c2nc(CN(CC3CCC3)CC3CCCO3)c(C)o2)s1 (stereo not given)
→ i	1.1
> CCN(CC)S(=O)(=O)c1cc(C(=O)OCC(=O)NC2CCCc3ccccc32)ccc1C (stereo not given)
→ -7.7*	0.54*
> C=CCNc1nc(-c2ccc(OC)cc2OC)cs1
→ i	0.2
> COc1ccc(S(=O)(=O)N2CCCCCC2)cc1C(=O)OC(C)C(N)=O (stereo not given)
→ i	-1.7
> CC(C)CC(COCc1ccc(F)cc1)N1CCN(C(=O)c2cccc(C(F)(F)F)c2)CCC1=O (stereo not given)
→ -6.1*	-1.3*

4 of these compounds, set out differently:
COc1ccc2c(c1)c(=O)oc1cc(OCC(=O)NC3CCCCC3)ccc12
  KCNQ2 inh = i	KCNQ2 inh baseline = -0.88

CCCN1CCN(CCCNC(=O)C2CCN(c3nnc(-n4cccc4)s3)CC2)CC1
  KCNQ2 inh = i	KCNQ2 inh baseline = -0.28

Cc1cc(C)c2c(n1)sc1c(=O)[nH]c(SCc3ccccc3)nc12
  KCNQ2 inh = i	KCNQ2 inh baseline = -0.79

CSc1nnc(Cc2sc(-c3ccccc3)nc2-c2ccccc2)o1
  KCNQ2 inh = i	KCNQ2 inh baseline = -0.65

(more compounds)
Values in the order – KCNQ2 inh	KCNQ2 inh baseline
> Cc1cc(Cl)ccc1NC(=S)NCCc1ccc(S(N)(=O)=O)cc1
→ i	-0.51
> CC1=C(C(N)=O)C(c2ccc(Br)cc2)n2nc(CCCO)nc2N1 (stereo not given)
→ i	0.12
> O=C(Cc1ccc(Br)cc1)Nc1ccc(S(=O)(=O)Nc2ncccn2)cc1
→ i	0.4
> O=C(Nc1cccnc1)c1ccccc1Cl
→ i	-0.91
> Cc1ccc(N=C2NC(=O)/C(=C/C=C/c3ccco3)S2)cc1
→ i	-0.19
> O=C(NCCC1=CCCCC1)C1CCN(Cc2cnn(-c3ccccc3)c2-n2cccc2)CC1
→ i	-0.51
> CCc1nnc(NC(=O)CCS(=O)(=O)c2ccc(C)cc2)s1
→ i	1.5
> O=C(N/N=C/c1c(O)ccc2ccccc12)c1ccc(CO)nc1
→ i	2.8
> COc1cc(C(=O)NC2CCN(CC(=O)NC3CCCCC3C)CC2)cc(OC)c1OC (stereo not given)
→ i	0.42
> CN1CCc2c(sc(N)c2C(=O)O)C1
→ i	0.57
> O=C1c2ccccc2C(=O)c2c1cccc2N1CCCC1
→ i	-0.65
> CCC(Oc1ccc(F)cc1)C(=O)N1CCCCCCC1 (stereo not given)
→ i	-0.03
> OCCNc1nc(Nc2ccccc2C(F)(F)F)nc(N2CCCC2)n1
→ i	1.2
> COc1ccc(C2C([N+](=O)[O-])=C(C)N(C)C(=O)N2C)cc1OC (stereo not given)
→ i	0.48
> CCN(CC(=O)Nc1c(F)cccc1F)C(=O)Cc1csc(-c2ccc(OC)c(OC)c2)n1
→ i	-1.3
> CCOC(=O)C1=C(C)N(c2ccccc2)C(=O)/C1=C\c1cccs1
→ i	-0.06
> CN(C)S(=O)(=O)c1cccc(NC(=O)C2Cc3ccccc3CN2C(=O)c2ccco2)c1 (stereo not given)
→ i	-0.06
> O=C(CSc1ccc(F)cc1)NC(=O)NCc1ccccc1
→ i	-0.81
> C/C(=C/C=N/Nc1nc(N2CCCCC2)nc(N2CCCCC2)n1)c1ccccc1
→ -7.2*	0.08*
> Cc1ccccc1OCC(=O)Nc1ccc2c(c1)Cc1ccccc1-2
→ i	0.5
> O=C(O)CNC(=O)c1ccc(OC(F)F)cc1
→ i	-1.7
> O=C(CSc1nc(C(F)(F)F)cc(=O)[nH]1)Nc1ccc2c(c1)OCCO2
→ i	-1.3
> CCCC(=O)NNc1cc(=O)c2c(=O)n(C)c(=O)n(C)c2[nH]1
→ i	-0.73
> CCCn1c(SCC(=O)Nc2ccccc2N2CCCCC2)nc2c1c(=O)n(C)c(=O)n2C
→ i	-0.42
> CCc1noc(C)c1C(=O)Nc1cc(Cl)ccc1N1CCOCC1
→ i	-1.2
> Cc1ccc(N(CN2C(=O)C3C4CCC(C4)C3C2=O)C(=O)c2ccco2)cc1 (stereo not given)
→ i	-0.9
> CCN(CC(=O)NCc1ccc(Cl)cc1)C(=O)/C=C/c1cc(OC)c(OC)c(OC)c1
→ i	0.19
> Nc1c(S(=O)(=O)c2cccs2)c2nc3ccccc3nc2n1Cc1ccccc1
→ i	0.4
> COc1cccc(-c2nnc(SCC(=O)N3CCCc4ccccc43)o2)c1
→ i	0.76
> Cc1ccc(CC(=O)NC(C)CCc2ccccc2)cc1 (stereo not given)
→ i	0.17

Remaining list, next part.
| compound | KCNQ2 inh | KCNQ2 inh baseline |
| --- | --- | --- |
| CCN(CC)c1nc(Nc2ccccc2)nc(Oc2ccc(C(=O)OC)cc2)n1 | i | 0.11 |
| Cc1ccc(S(=O)(=O)Oc2ccc(/C=N/NC(=O)c3cccnc3)cc2)cc1 | i | -0.38 |
| O=C(CSc1ccc2ccccc2n1)NCc1ccc2c(c1)OCO2 | i | -0.72 |
| CCCCNC(=O)C1c2cc(OC)c(OC)cc2C(=O)N(C)C1c1cccs1 (stereo not given) | i | -0.48 |
| CC(=O)c1ccc(NC(=O)/C(=C\c2ccccc2)NC(=O)/C=C/c2ccccc2)cc1 | i | -2.2 |
| COc1cc(S(=O)(=O)Nc2ncn[nH]2)ccc1Cl | i | 0.54 |
| CCOC(=O)N1CCN(C(=O)c2c[nH]c3ccc(S(=O)(=O)N(C)c4ccc(OCC)cc4)cc3c2=O)CC1 | i | -0.17 |
| O=C(NC1CCCCC1)Nn1c(-c2ccccc2)nc2ccccc2c1=O | i | 1.9 |
| Cc1noc(C)c1CSc1nc2ccccc2s1 | i | 1.6 |
| Cc1nnc2ccc(N3CCN(C(=O)c4ccccc4)CC3)nn12 | i | -1.8 |
| c1cnc(NCCNc2ncccn2)nc1 | i | -1.1 |
| COC(=O)c1cccc(NC(=O)c2cc3sccc3n2C)c1 | i | 1.8 |
| O=C(Nc1nnc(SCC(=O)N2CCCc3ccccc32)s1)c1cccc2ccccc12 | i | -0.76 |
| CCc1ccccc1N(CC)C(=O)CCc1nc(-c2ccc(C)cc2)no1 | i | 2.1 |
| Cn1c(SCc2ccccc2)nc(N)c(N=O)c1=O | i | -0.67 |
| S=C(NCCc1ccncc1)Nc1cccc2ccccc12 | i | -2 |
| CCOC(=O)c1cc2occc2n1CC(=O)NC1CCC(C)CC1 (stereo not given) | i | 0.27 |
| CCN(CC(=O)NCc1cccs1)C(=O)c1ccc(OC)c(OC)c1 | i | -0.28 |
| OCC[C@@H]1C[C@@H](O)[C@H](O)[C@]2(CCc3ccccc3CO2)O1 | i | 0.12 |
| COC(=O)c1ccc(N2CCN(C(C)=O)CC2)c(NC(=O)c2cccnc2)c1 | i | -2.4 |
| CC(=O)Nc1ccc(-n2nnnc2SCC(=O)N2CCN(C(=O)c3ccco3)CC2)cc1 | i | 0.35 |
| O=C(Nc1ccccc1-c1nc2ccccc2[nH]1)c1ccc(N2C(=O)CCC2=O)cc1 | i | -1.2 |
| O=C(CN1CCCCCC1)N/N=C/c1cccc(Cl)c1 | i | -1.1 |
| CCc1ccc(NC(=O)c2cc(CC(C)C)on2)cc1 | i | -0.38 |
| CC(C)NC(=O)c1ccccc1NC(=O)CCc1ccccc1 | i | -1.1 |
| S=C(NCc1ccco1)NCc1ccccc1Cl | i | -1.6 |
| CCN1C(=O)c2ccccc2S(=O)c2ccc(C(=O)NCc3ccccn3)cc21 (stereo not given) | i | -0.68 |
| C=C(C)Cn1c(C2CC(=O)N(c3ccccc3F)C2)nc2ccccc21 (stereo not given) | i | 0.52 |
| CCC(O)(CC)C(=O)N=Nc1c(O)[nH]c2ccccc12 | i | 2.2 |
| Cn1c(C(F)(F)F)nc2c(=O)oc3ccccc3c21 | i | -0.1 |
| Cc1ccc(NC(=O)CN(c2ccccc2)S(=O)(=O)N(C)C)cc1C | i | -1 |
| CCCCOc1ccc(C(=O)C(CN2CCOCC2)c2ccccc2)cc1 (stereo not given) | i | 1.1 |
| CSc1nc(C)cc(C)c1S(=O)(=O)c1ccccc1C | i | 1.2 |
| COC(=O)c1nn(-c2cccc(C)c2)c2nnc(Cc3ccc(C)cc3)c(=O)n12 | i | 0.52 |
| COc1cccc(NC(=O)NC2CCN(CC(=O)Nc3ccccc3[N+](=O)[O-])CC2)c1 | i | 0.06 |
| Cn1c(COc2ccc3ccccc3c2)nnc1SCC(=O)OC1CCCCC1 | i | 1.5 |
| O=c1onc(-c2c(F)cccc2F)n1-c1ccccc1Cl | i | -1.8 |
| CN1CCN(S(=O)(=O)c2ccc(NC(=O)c3ccc(F)cc3)cc2)CC1 | i | 1.5 |
| N#Cc1ccc(C(=O)Nc2nc(-c3cccs3)c(C(=O)C(F)(F)F)s2)cc1 | i | 1.5 |
| COC(=O)c1ccc(C2CC(=O)NC3=C2C(=O)CCC3)cc1 (stereo not given) | i | 0.59 |
| O=C(c1ccncc1)N1CCN(S(=O)(=O)c2cccc(Cl)c2)CC1 | i | -1.1 |
| COc1ccc(C(C(=O)NC2CCCC2)N(C(=O)c2ccco2)c2ccccc2OC)cc1 (stereo not given) | i | 2.1 |
| NC1=NCc2ccccc21 | i | 0.31 |
| Cc1sc2nc(CSCC(=O)N(C)CC(=O)Nc3ccc(F)cc3)[nH]c(=O)c2c1C | i | -0.37 |
| CCSc1nc(C)nc2c1oc1ccccc12 | i | 1.9 |
| CCc1nc(NCCC(C)C)c(C#N)c2c1CCCC2 | i | 0.04 |
| CCN(CC)S(=O)(=O)c1cccc(C(=O)Nc2ccccc2C(=O)N2CCOCC2)c1 | i | 2.4 |
| CN(C(=O)COC(=O)c1ccccc1Nc1ccccc1)c1c(N)n(Cc2ccccc2)c(=O)[nH]c1=O | i | 1.5 |
| CSc1sc(-c2ccnc(SCCS(C)(=O)=O)n2)c(-c2ccccc2)c1C#N | i | -0.04 |
| O=C(N/N=C/c1ccc(O)cc1)c1ccncc1 | i | 0.08 |
| CCN(CC)c1ccc(S(=O)(=O)N2CCOCC2)cc1NC(=O)CSc1ccccc1 | i | -0.01 |
| CCc1ccc(C2=NN(C(=O)CCC(=O)O)C(c3cccs3)C2)cc1 (stereo not given) | i | 0.85 |
| O=[N+]([O-])C1=CC=C2C(=NC3(CCCCC3)N2O)C1=NC1CCCCC1 | i | 1.4 |
| COc1ccc(C(=O)NNC(=O)c2ccc3ccccc3c2O)cc1 | i | 0.05 |
| O=C(Cc1ccccc1)O/N=C1\CCCc2ccccc21 | i | -1.8 |
| Cc1ccc2cc(CN(Cc3nnnn3Cc3ccco3)CC3CCCO3)c(=O)[nH]c2c1C (stereo not given) | i | -1.2 |
| CCCSc1cc(N2CCN(C)CC2)nc(-c2ccc(OC)cc2)n1 | i | 0.82 |
| Nc1ccc(-c2c3ccc(=O)cc-3oc3cc(O)ccc23)cc1C(=O)O | i | 100 |
| COc1ccc(CNC(=O)CN2C(=O)COc3ccc(S(=O)(=O)N4CCOCC4)cc32)cc1 | i | 0.34 |
| Cc1cc(C(=O)NNC(=O)CCN2CCN(c3ccccc3)CC2)c2ccccc2n1 | i | 2.7 |
